Screening data (PubChem)
TRPV1 PAM: human TRPV1 potentiation; TRPV1-expressing cells, Fluo-8 calcium influx, capsaicin EC20 potentiation; host cell line not named in the record; control for the full effect not named in the record; potentiation, % at 8.33 µM; 0.02% of 320,000 active; AID 540277; active means potentiation above 80%; inconclusive means 30% to 80%; inactive means below 30%; also: 0% is about no effect
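TRPV1-expressing cells were cultured overnight at 35.5C and loaded with Fluo-8 calcium dye for 40 to 90 min at room temperature. After a 10 s baseline, compound was added and calcium influx was read kinetically for 3 min (ex 480/em 520 nm).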
Sfp PPTase inh: inhibitors of Bacillus subtilis Sfp phosphopantetheinyl transferase; 3.5% of 310,000 active; Q9F4F7; Biochemical Sfp PPTase activity, qHTS; Potency, µM, without a hit: max response, negative = inhibition, most hits filed as inhibitors; active = well fitted inhibition curve with a large enough effect; inconclusive = small, poorly fitted or top-dose-only effect, or another doubt; inactive = no such curve, though single readings can be large or run the other way;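 also: the enzyme is Sfp with the accession as filed and its product quenches rhodamine fluorescence; potency is read from the fitted curve at half-maximal effect; 0% = enzyme reaction without inhibitor and -100% = no enzyme wells; top concentration of the series not given in the record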
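Fluorescence-quenching assay with 15 nM Sfp, 5 uM rhodamine-CoA and 12.5 uM BHQ-2-labelled ybbR peptide in pH 7.6 Hepes/MgCl2 buffer. Enzyme was pre-incubated with compound for 15 min at room temperature. Rate was taken from the 30-min fluorescence change (525/598 nm).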
Menin-MLL FL inh: displaces fluorescein MLL peptide from human menin; Fluorescence polarization, fluorescein-MLL peptide displacement from menin; FP activity change, % at 61.4 µM; 290,000 tested, under 10 active; AID 1766; inconclusive = falling polarisation curve, or a change in total fluorescence; inactive = total fluorescence flat and polarisation flat or rising; no compound was filed as active; the % refers to the polarisation; negative = inhibition;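 also: % of control where 0% means no effect; inhibitors lower the polarisation; unlabelled MLL peptide was the positive control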
gsp ag: activates gsp, the McCune-Albright syndrome mutation. 0.13% of 340,000 active. gsp mutant cells, cAMP HTRF, 30 min; control for the full effect not named in the record. Potency, µM (doses to about 76.9 µM), for inactives: at the highest dose activation (cAMP increase), hits mostly activators. AID 624287; active = well fitted activation curve with a large enough effect; inconclusive = small, poorly fitted or top-dose-only effect, or another doubt; inactive = no such curve, though single readings can be large or run the other way; cell line not stated here;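 also: phosphodiesterase inhibitor Ro 20-1724 added with compounds to block cAMP breakdown; potency is read from the fitted curve at half-maximal effect; nearly all actives have a fitted effect of over 60% in size; about a fifth of the inactives were tested at one dose only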
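Cells in DMEM/10% FBS with G418 were pretreated with compounds in DMSO plus […] (300 uM stock) for 30 min at 37C. cAMP was measured by HTRF (cAMP-d2 plus anti-cAMP antibody-K) after 30 min at room temperature.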
gsp antagonist: gsp mutant antagonism. gsp-mutant cells, cAMP HTRF, 30 min; control for the full effect not named in the record. Potency, µM (top dose mostly 76.9 µM), for the others: top-dose activity change, negative = inhibition, hits mostly inhibitors. 0.4% of 340,000 active. AID 624288; active = falling curve of any shape with a large fitted effect; inconclusive = falling curve, mostly with a smaller effect; inactive = flat or rising curve; cell line not stated here;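 also: intracellular cAMP measured with PDE inhibitor Ro 20-1724 present during compound exposure; potency is read from the fitted curve at half-maximal effect; % is scaled to controls: 0 for no effect and ±100 for the full control effect; nearly all actives have a fitted effect of over 65% in size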
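HTRF cAMP read-out (cAMP-d2 plus anti-cAMP antibody-K in lysis buffer, 30 min RT). Before lysis, cells are exposed to compounds with […] for 30 min at 37C in DPBS containing Ca/Mg, BSA and Tween 20.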
D2 PAM: potentiates the human D2 dopamine receptor allosterically; P14416; DiscoveRx D2 beta-arrestin cells, luminescence, 90 min; 100% = 57 uM dopamine signal; potentiation, % (concentration not given with the values); 0.23% of 360,000 active; active = potentiation of 50% or more; inconclusive = 30% to 50%; inactive = 30% or less;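 also: compound concentration not given in the record; tested on top of an EC20 dose of dopamine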
Target sequence (P14416 whole entry, looked up): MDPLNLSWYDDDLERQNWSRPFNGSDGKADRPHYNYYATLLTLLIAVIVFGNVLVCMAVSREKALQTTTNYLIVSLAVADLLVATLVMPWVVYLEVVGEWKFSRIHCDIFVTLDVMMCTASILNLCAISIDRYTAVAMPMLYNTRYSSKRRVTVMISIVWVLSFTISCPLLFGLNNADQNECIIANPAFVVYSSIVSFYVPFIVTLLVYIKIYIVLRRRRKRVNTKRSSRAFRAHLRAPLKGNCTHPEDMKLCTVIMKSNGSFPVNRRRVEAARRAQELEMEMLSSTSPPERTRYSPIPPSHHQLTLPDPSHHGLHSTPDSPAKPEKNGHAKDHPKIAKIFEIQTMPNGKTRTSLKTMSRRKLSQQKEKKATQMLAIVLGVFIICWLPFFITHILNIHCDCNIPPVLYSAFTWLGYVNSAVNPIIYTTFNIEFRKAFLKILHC
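D2 cells co-treated with compound plus 50 nM dopamine (EC20) for 90 min at 37 deg C to detect potentiation. Beta-arrestin recruitment was read as enzyme-fragment luminescence after 1 h at ambient temperature. Full response was set by 57 uM dopamine.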
ClpP mod: qHTS Assay for Activators of ClpP. 1.9% of 340,000 active. ATP-dependent Clp protease proteolytic subunit (Bacillus subtilis (strain 168)), P80244. Potency, µM (top dose mostly 57.5 µM), for inactives: at the top dose activity change, negative = active. purified B. subtilis ClpP, FRET peptide cleavage, 20 min; active = well fitted falling curve with a large enough effect; inconclusive = small, poorly fitted or top-dose-only effect; inactive = no such curve, though single readings can be large or run the other way; also: potency is read from the fitted curve at half-maximal effect; the source files actives as falling curves though it sought activators and does not explain the sign; nearly all actives have a fitted effect of over 65% in size; many hits overshoot -100%
Target sequence (P80244 whole entry, looked up): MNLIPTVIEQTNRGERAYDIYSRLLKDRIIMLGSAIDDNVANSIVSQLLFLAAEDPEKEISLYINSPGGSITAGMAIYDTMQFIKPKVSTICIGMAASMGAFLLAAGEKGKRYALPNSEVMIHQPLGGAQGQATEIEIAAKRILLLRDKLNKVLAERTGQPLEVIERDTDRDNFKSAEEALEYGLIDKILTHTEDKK
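ClpP 10 microg/mL final, pH 8 Tris/KCl buffer with BSA, glycerol, Tween-20; compound pinned in; FRET-FV substrate; RT 20 min; Ex320/Em430; ΔFRET vs ADEP 5.8 microM, DMSO, no enzyme.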
Active calls of the source: *; ? = inconclusive; / = no result given; & = joins results of further samples; [ ] = another dose, or the depositor's remark.

Start of the listing, in advance, 6 compounds:
Each structure is followed by: TRPV1 PAM, Sfp PPTase inh, Menin-MLL FL inh, gsp ag, gsp antagonist, D2 PAM, ClpP mod
COc1ccccc1NC(=O)Nc1cccnc1
 : 0, 0%, -0.4, -4%[15.4 µM], -38%, -5, /
COc1cc(/C=N/NC(=O)C(C)n2nnc3ccccc32)ccc1O (stereo not given)
 : 2, -1%, 2.2, -27%, -4%, -6, 2.0%
O=C(NC(=S)NC1CC1)c1cccnc1
 : -7, -23%, 7.8, 4%, 6%, -1, -2.2%
O=C(O)c1cc(/C=C/C(=O)c2cc(F)ccc2O)c2c(c1)COCO2
 : 13, 22µM*, 11, 2%, -5%, -21, 7.1%
Cc1cccc(OCC(=O)Nc2cc(C)on2)c1
 : 26, 9%, -2.0, 6%, 2%, -11, 0.6%
Cc1nn(Cc2ccc(F)cc2)c(C)c1NC(=O)c1cc2ncc(Br)cn2n1
 : 9, 9%, -0.1, 23%, 8%, -4, -0.7%

This part in full, previewed entries included:
Each structure is followed by: TRPV1 PAM, Sfp PPTase inh, Menin-MLL FL inh, gsp ag, gsp antagonist, D2 PAM, ClpP mod
COc1ccccc1NC(=O)Nc1cccnc1
 : 0, 0%, -0.4, -4%[15.4 µM], -38%, -5, /
COc1cc(/C=N/NC(=O)C(C)n2nnc3ccccc32)ccc1O (stereo not given)
 : 2, -1%, 2.2, -27%, -4%, -6, 2.0%
O=C(NC(=S)NC1CC1)c1cccnc1
 : -7, -23%, 7.8, 4%, 6%, -1, -2.2%
O=C(O)c1cc(/C=C/C(=O)c2cc(F)ccc2O)c2c(c1)COCO2
 : 13, 22µM*, 11, 2%, -5%, -21, 7.1%
Cc1cccc(OCC(=O)Nc2cc(C)on2)c1
 : 26, 9%, -2.0, 6%, 2%, -11, 0.6%
Cc1nn(Cc2ccc(F)cc2)c(C)c1NC(=O)c1cc2ncc(Br)cn2n1
 : 9, 9%, -0.1, 23%, 8%, -4, -0.7%
NC(=O)CC[C@@H]1NC(=O)[C@@H]2CCCN2C(=O)c2cc([N+](=O)[O-])cc(F)c2NCCC[C@@H](C(N)=O)NC1=O
 : -1, 24%, 0.2, /, 8%, 2, 1.3%
Cc1c(N2C(=O)CSC2c2ccc([N+](=O)[O-])cc2)c(=O)n(-c2ccccc2)n1C (stereo not given)
 : -5, 2%, 3.0, 9%, 7%, 1, /
CC(C)CC(NC(N)=O)C(=O)OCC(=O)N(Cc1ccccc1)Cc1ccccc1 (stereo not given)
 : -11, 16%, 0.1, 25%[15.4 µM], -6%, -4, /
O=C(O)C1=C[C@H](c2ccc(C(F)(F)F)cc2)C[C@H](OCCCCO)O1
 : /, /, /, /, 2%, -20, -0.6%
CCOc1cccc(-c2nnc(SCC(=O)Nc3cc(OC)cc(OC)c3)n2N)c1
 : 8, -5%, -0.7, 3%, 3%, -15, -0.8%
Cn1nnc2ccccc2c1=O
 : 2, 11%, -1.5, 0%, 10%, 1, /
O=C(O)CC(=O)Nc1ccc(Oc2ccc(C(F)(F)F)cn2)c(Cl)c1
 : 22, 20%, -1.2, 19%, -7%, -1, /
CSCCCNC(=S)N1CCc2ccccc2C1
 : -16, 9%, -2.8, ?, -8%, -12, 0.1%
Cc1ccc(S(=O)(=O)N(C)CC(=O)NNC(=O)CCS(=O)(=O)c2ccccc2)cc1
 : /, /, /, -7%, 11%, -1, -1.4%
CCCC(c1nnnn1C(C)(C)CC)N1CCN(C(=O)c2ccco2)CC1 (stereo not given)
 : 3, -12%, 4.6, 5%[15.4 µM], -5%, -9, 1.0%
CC(=O)c1cccc(NC(=O)c2cccc(N3C(=O)c4ccccc4C3=O)c2)c1
 : -15, 3%, 9.2, 0%, ?, -8, 4.4%
Cc1ccnc(NC(=O)CCC(=O)N(CC(=O)NC(C)(C)C)C2CCCC2)c1
 : 1, 8%, 1.9, 24%, 7%, -15, 0.6%
COc1ccccc1C(C[N+](=O)[O-])c1c[nH]c2ccccc12 (stereo not given)
 : 15, 15%, -0.5, 13%[15.4 µM], -12%, -4, -2.4%
O=C(CSc1ncn[nH]1)Nc1cccc(S(=O)(=O)N2CCCCCC2)c1
 : 12, -2%, 0.6, 15%[15.4 µM], 2%, -4, -1.0%
CCc1cc(CNC(=O)c2ccc3nc(Cc4ccc(OC)c(OC)c4)oc3c2)on1
 : 5, 10%, /, 5%, -8%, -2, -4.4%
CCOC(=O)c1cnc(-n2nc(C)cc2C)nc1NCCc1ccccc1
 : -14, 50µM*, 0.4, 45%, -23%, -8, -29%
Cc1cccn2c(=O)c3cc(C(=O)N4CCN(C(=O)c5ccco5)CC4)n(C)c3nc12
 : -6, 2%, 2.5, 7%[15.4 µM], 4%, 11, -0.2%
CCN(CC)S(=O)(=O)c1ccc2oc(Nc3ccc(OC)cc3OC)nc2c1
 : 21, -6%, -0.9, -1%[15.4 µM], -19%, 1, -2.0%
Cc1ccsc1/C=N/NC(=O)CO
 : -1, 26%, -6.4, -15%, -2%, -2, 0.0%
CCc1ccc(N2C(=O)CN(Cc3cccs3)C2=S)cc1
 : 2, 17%, -5.3, 5%[15.4 µM], -5%, -2, -2.6%
Cc1ccc(CNC(N)=S)cc1
 : -1, -2%, 1.0, 1%, 12%, -8, -1.9%
C/C=C/C(=O)OCC(=O)Nc1nc2ccc(C)cc2s1
 : 10, 18%, 6.1, ?, 1%, 12, -12%
O=C(Cc1cccs1)N/N=C/C(Cl)=C/c1ccccc1
 : 3, 15%, 3.5, -13%[15.4 µM], -8%, -6, /
CCOC(=O)[C@@H]1[C@H]2COc3ccc(Br)cc3[C@H]2N2C(=O)N(c3ccc(Br)cc3)C(=O)[C@]12C
 : 6, 4%, -4.1, /, -9%, -27, -2.6%
O=C(CN1CCCCC1)N1CCc2ccccc21
 : -10, 16%, -5.9, -21%, 4%, -10, /
COc1cc(C)ccc1Oc1nc(-c2ccccc2O)nc2ccccc12
 : 5, 17%, -2.7, -15%[15.4 µM], 10%, 2, /
COc1ccc(/C=N/Nc2nc(N3CCCC3)nc(N3CCCC3)n2)c(OC)c1OC
 : -31, -8%, /, 5%, 4%, 4, -0.6%
CN1C(=O)CC(C(=O)O)SC1=Nc1cc(Cl)cc(Cl)c1 (stereo not given)
 : -10, ?, -1.0, -10%, -6%, -4, -2.3%
Cc1c(NC(=O)c2cc3c(s2)CCCC3)c(=O)n(-c2ccccc2)n1C
 : -17, -2%, 0.1, 1%, -2%, -5, /
CCOC(=O)c1c(C)c(C(=O)Nc2ccc(N(C)C)cc2)c(C)n1CC
 : 8, -7%, 5.7, -16%, 14%, -5, -0.6%
O=C(c1cc(S(=O)(=O)N2CCOCC2)ccc1Cl)N1CCOCC1
 : -4, 14%, 2.6, -89%[inhibitor], -6%, -16, -1.6%
COc1ccc(S(=O)(=O)N2CCOCC2)cc1NC(=O)CCNC(=O)c1ccc(Br)cc1
 : -1, /, /, 2%[15.4 µM], 0%, 4, -18%
COc1ccc(S(=O)(=O)NCc2cccnc2)cc1Br
 : 11, 9%, 0.7, -23%, 1%, 60*, -0.3%
O=C(O)c1cccc(NS(=O)(=O)c2ccc(NC(=O)c3ccco3)cc2)c1
 : -7, 6%, 0.5, -2%[15.4 µM], -1%, 1, /
O=[N+]([O-])c1cc(C(F)(F)F)cc([N+](=O)[O-])c1NN=C1CCCCC1
 : -1, ?, 0.5, -30%, 9%, ?, 2.6%
C=CCNC(=O)CN1CCC(c2nc3ccccc3[nH]2)CC1
 : -12, 5%, /, -13%, 9%, -7, -2.1%
COc1cccc(OC)c1OCCN(C)C
 : -1, 8%, -0.5, -4%, 5%, -14, -2.0%
COc1ccc(OC)c(C(=O)CN2C(=O)NC(C)(c3ccccc3)C2=O)c1 (stereo not given)
 : 1, 16%, 2.0, ?, 7%, 1, -24%
CN(C(=O)COc1ncnc2c1cnn2-c1ccccc1)C1CCCCC1
 : -2, 23%, 1.9, 3%[15.4 µM], 8%, -8, 2.6%
O=C(CCCOc1ccc(Cl)cc1Cl)NNC(=O)c1ccc(NC(=O)c2ccccc2)cc1
 : -8, -10%, /, -1%, 9%, -15, ?
NCCCCCCNS(=O)(=O)c1cccc2ccccc12
 : /, 22%, -0.3, /, /, /, -8.0%
Cc1oc(-c2cccc(Cl)c2)nc1CSCC(=O)O
 : 15, -4%, 0.1, ?, -12%, -3, -6.7%&-5.7%
CC(=O)c1ccc(OC(=O)C(CCS(C)(=O)=O)N2C(=O)c3ccccc3C2=O)cc1 (stereo not given)
 : 18, -6%, -0.5, -17%, 5%, -7, -0.4%
CC(C)[C@@H](CO)NS(=O)(=O)c1ccc(Br)cc1F
 : /, /, /, /, 9%, -6, -1.0%
Cc1cc(NC(=O)Nc2ccc(Cl)c(Cl)c2)no1
 : /, /, /, -15%, -3%, -2, /
CCCn1c(=O)c(C(=O)NNS(=O)(=O)c2ccc(NC(=O)OC)cc2)c(O)c2ccccc21
 : 23, 19%, 0.0, -14%, -21%, -6, /
Cc1ccc2cc(CCNC(=O)c3ccc4c(c3)OCO4)c(=O)[nH]c2c1C
 : 8, 7%, 0.2, -3%, ?, 3, -23%
COc1cccc(-c2nc(-c3ccccc3)nc(N3CCN(C)CC3)c2C#N)c1
 : -1, -27%, 0.0, 6%, -17%, -9, /
COc1cccc(CC(=O)Nc2nc(C)cs2)c1
 : -9, -3%, -0.9, -13%, -1%, -8, -1.6%
O=C(Nc1ccc2[nH]ccc2c1)c1ccccc1
 : -6, 29%, 3.2, -4%[15.4 µM], -6%, -5, /
O=C(Cn1c(=O)sc2ccccc21)Nc1ccc(S(=O)(=O)N2CCCC2)cc1
 : 17, 3%, 3.1, -13%, -6%, -15, -0.5%
COCCSc1nnc(NC(=O)CCS(=O)(=O)c2ccccc2)s1
 : 1, 17%, 4.4, -2%[15.4 µM], 3%, -5, /
O=C(/C=C/c1ccco1)N(Cc1cccc(F)c1)C1CCS(=O)(=O)C1 (stereo not given)
 : ?, ?, /, 30%, -14%, -4, 1.3%
COc1ccc2cc3cc(C(=O)N4CCN(c5ccccc5)CC4)oc3nc2c1
 : -1, 6%, 2.2, 0%, 6%, 3, 0.4%
